NPYLR7 agonist: activates Aedes aegypti NPYLR7 receptor | HEK293T NPYLR7/Galpha15, GCaMP6s calcium fluorescence | activation, % at 10 µM | hit rate 0.15% among 270,000; in the data active means activation above about 40%;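 further: 0% = vehicle and 100% = reference agonist at the receptor; some compounds past the cut are filed as inactive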
NPYLR7 agonist max-min: also measured in NPYLR7 agonist; calls as there; activation, %; measured here: Max-Min RFU normalised activation; some inactives read as strong as hits;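 span of the calcium signal over five minutes; 0% = vehicle and 100% = native peptide agonist; compound fluorescence can raise it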
Numbers without * were called inactive; & = joins results of further samples.

Under each structure: NPYLR7 agonist	NPYLR7 agonist max-min
- CCc1nc(C)sc1CNC(=O)c1ccc2oc(=O)n(C)c2c1
→ 4	3
- c1ccc(-c2cc(=Nc3ccc4c(c3)OCO4)c3ccccc3o2)cc1
→ 4	1
- CSc1ccc(CN2CCC2(C)C(=O)Nc2cccc(Oc3ccccc3)c2)cc1 (centres undefined)
→ 1	-2
- O=C(O)CCNC(=O)C(F)(F)C(F)(F)C(=O)NCCC(=O)O
→ -2	-4
- COc1cc2c(cc1OC)C1CN3CCc4cc(OC)c(OC)cc4C3CN1CC2 (centres undefined)
→ 4	0
- CCC(C)N(Cc1ccccc1OS(=O)(=O)c1ccc(NC(C)=O)cc1)C(=O)NC(C)(C)C (centres undefined)
→ 1	10
- CC(C)NC(=O)c1csc(N2CCN(CCc3ccccc3)C2=O)n1
→ -4	-6
- Cc1cc(C(=O)CSc2nnc(C3CC3)n2C2CC2)c(C)n1C1CC1
→ 3	8
- O=C(C=Cc1ccco1)N1CCN(S(=O)(=O)c2ccc(Cl)s2)CC1
→ 0	3
- O=C(CSc1nncn1C(=O)/C=C/c1ccccc1)c1ccccc1
→ -7	-12
- CCN(C1CCS(=O)(=O)C1)S(=O)(=O)CCn1cnc2ccccc21 (centres undefined)
→ -5&2	-7&-2
- C=CCn1c(N)c(C(=O)OCC)sc1=S
→ 0	-4
- Cc1[nH]c(=O)nc(SCC(=O)N2CCN(c3ccccc3)CC2)c1C#N
→ -4	-9
- Cc1ccc(-c2nc(N(C)Cc3cccc4ccccc34)c3ccccc3n2)cc1
→ 5	12
- CC1=NC2=C(C(=O)CCC2)C(c2ccncc2)C1C(=O)OCCc1ccccc1 (centres undefined)
→ -7	-10
- COc1ccc(OC)c(C2SCC(=O)N(CC(=O)N3CCOCC3)c3c2c(C(C)(C)C)nn3-c2cccc(C)c2)c1 (centres undefined)
→ -13	-2
- COc1cccc(CN(C)C2CC(C)(C)NC(C)(C)C2)c1O
→ 20	12
- CC1CCc2ccccc2N1C(=O)Cn1nc(Br)nc1Br (centres undefined)
→ 1	0
- O=C(c1ccc(N2CCCS2(=O)=O)cc1)N1CCN(S(=O)(=O)c2ccccc2Cl)CC1
→ 4	0
- CCOCCOC(=O)C1=C(C)N(C)C(=O)NC1c1ccc(Cl)cc1 (centres undefined)
→ -4	-8
- COc1ccc(Nc2nc(NCCCc3ccccc3)nc3nccnc23)cc1
→ 5	4
- Cc1ccccc1C1=NOC(CN(Cc2ccccc2Cl)C(=O)c2cccc(F)c2)C1 (centres undefined)
→ 26	25
- Cc1ccc(-c2noc3nc(C)cc(C(=O)O)c23)cc1
→ -1	-3
- N#Cc1ccc(COC(CN2CCN(C(=O)C3CC3)CC2)c2cccc(N3CCCC3)c2)cc1 (centres undefined)
→ 3	-3
- C=CCNc1ccccc1C(=O)NC1C(=O)Nc2cc(OC)ccc21 (centres undefined)
→ -11	-9
- CN1CCOC(C(=O)N(Cc2ccc(O)cc2)Cc2ccco2)C1 (centres undefined)
→ -22	-23
- CCCc1c(-c2ccccc2)ncn1Cc1ccc(C(=O)N2CCCC2)cc1
→ 5	4
- O=C(O)C1(Cc2cccc(Cl)c2)CCCN(Cc2cccnc2)C1 (centres undefined)
→ 7	4
- COc1ccccc1C1CN(CCNC(=O)CCc2scnc2C)Cc2ccccc2O1 (centres undefined)
→ 13	4
- Cc1ccc(-n2nc(C(C)C)nc2C(C)N2CCCC2=O)cc1 (centres undefined)
→ 10	8

Quoted at random: three compounds from above.
Under each structure: NPYLR7 agonist	NPYLR7 agonist max-min
- O=C(C=Cc1ccco1)N1CCN(S(=O)(=O)c2ccc(Cl)s2)CC1
→ 0	3
- CCC(C)N(Cc1ccccc1OS(=O)(=O)c1ccc(NC(C)=O)cc1)C(=O)NC(C)(C)C (centres undefined)
→ 1	10
- Cc1ccc(-n2nc(C(C)C)nc2C(C)N2CCCC2=O)cc1 (centres undefined)
→ 10	8

(cont.)
Under each structure: NPYLR7 agonist	NPYLR7 agonist max-min
- CC(C)CN(CC(=O)Nc1nc(CC(=O)NCc2ccc(F)cc2)cs1)C(=O)c1ccc(Cl)cc1
→ 2	-3
- O=C(NCC1COc2ccccc2O1)N1CCN(c2ccc(F)cc2)CC1 (centres undefined)
→ -3	-4
- CCOC(=O)c1cc(-c2ccccc2)c(=S)sc1N
→ 8	10
- COc1ccc(-c2csc(-c3nnn(-c4cccc(F)c4)c3C)n2)cc1OC
→ -2	-5
- Cc1ccn2c(NC(=O)CCC3CCCC3)c(-c3ccccc3C)nc2c1
→ -4	5
- CC(=O)OC(C(=O)N1CC(=O)N2CCc3c(F)cccc3C2C1)c1ccccc1 (centres undefined)
→ 3	3
- Cc1ccc(-c2[nH]ncc2CNCCc2cccc(F)c2)cc1C
→ 7	-5
- O=C(/C=C/c1ccc(Br)s1)Nc1ccc(Br)cc1F
→ -2	-4
- O=C(C1CC(=O)N(c2ccc(F)cc2)C1)N1CCN(Cc2nnnn2-c2ccccc2)CC1 (centres undefined)
→ -3	-4
- C=CCn1c(C)nn(CN2CCCC(NC(=O)OCC)C2)c1=S (centres undefined)
→ 6	4
- CC(=O)Nc1ccccc1CC(=O)O
→ -2	-7
- Cc1[nH]c2ccccc2c1CC(=O)NCCS(=O)(=O)N(C)C
→ -1	-3
- FC(F)(F)c1ccc(N2CCCNCC2)nc1
→ 2	-1
- Cc1sc(-c2nsc(=O)o2)cc1[N+](=O)[O-]
→ -1	-2
- CC(C)(C)C1CCC(NC(=O)CCC(=O)N2CCN(c3ccccn3)CC2)CC1 (centres undefined)
→ -12	-21
- O=[N+]([O-])c1ccccc1-c1ccc(-c2nnc(-c3ccco3)o2)o1
→ 3	7
- CCOC(=O)c1ccc2c(c1)nc(SCc1cc(F)ccc1C)n2Cc1ccco1
→ 0	-5
- CCn1nc(C)cc1C(=O)N(C)c1ccc(Br)cc1F
→ 5	0
- CCOC(=O)CCCn1ncn2c(cc3occc32)c1=O
→ 1	-1
- Cc1c(Cl)c([N+](=O)[O-])nn1CC(=O)Nc1ccc(OC(F)(F)F)cc1
→ 2	1
- CCOc1ccc(-c2ncncc2Oc2ccccc2OCC)c(O)c1
→ 1	-3
- O=C(NCCc1csc2c1CCCC2)c1cn(CC2CCCNC2)nn1 (centres undefined)
→ 6	0
- CCCOc1ccc(C(=O)N(C)CCCN2c3ccccc3CCc3ccccc32)cc1
→ -3	-13
- CCOC(=O)C1(Cc2ccccc2C(F)(F)F)CCN(C(=O)c2cccc(OC)c2)CC1
→ 4	2
- Cc1ccc(-n2nnnc2CNC(=O)NCc2cccc3ccccc23)cc1C
→ 0	-3
- Cc1ccc(-c2cc(C(F)(F)F)n3ncc(C(=O)N4CCN(C)CC4)c3n2)cc1
→ 3	6
- CCCC(=O)OCC(O)CN(Cc1ccc(OC)cc1)Cc1ccccc1F (centres undefined)
→ 16	20
- CCOC(=O)C1(CCc2ccccc2)CCCN(Cc2cccn2-c2ncccn2)C1 (centres undefined)
→ 0	1
- CCOC(=NC1CCCc2ccccc21)NC(=O)c1ccc(C(F)(F)F)cc1 (centres undefined)
→ -3	1
- Cn1c(=O)c2cc(NC(=O)Nc3ccccc3)ccc2n1Cc1ccccc1
→ 0	0

The last six entries of the part above come first, to join the parts.
Under each structure: NPYLR7 agonist	NPYLR7 agonist max-min
- Cc1ccc(-n2nnnc2CNC(=O)NCc2cccc3ccccc23)cc1C
→ 0	-3
- Cc1ccc(-c2cc(C(F)(F)F)n3ncc(C(=O)N4CCN(C)CC4)c3n2)cc1
→ 3	6
- CCCC(=O)OCC(O)CN(Cc1ccc(OC)cc1)Cc1ccccc1F (centres undefined)
→ 16	20
- CCOC(=O)C1(CCc2ccccc2)CCCN(Cc2cccn2-c2ncccn2)C1 (centres undefined)
→ 0	1
- CCOC(=NC1CCCc2ccccc21)NC(=O)c1ccc(C(F)(F)F)cc1 (centres undefined)
→ -3	1
- Cn1c(=O)c2cc(NC(=O)Nc3ccccc3)ccc2n1Cc1ccccc1
→ 0	0
- COc1ccc(Nc2nc3c(C)cccn3c(=O)c2/C=N\Nc2ccccc2)cc1
→ 2	11
- CCOC(=O)C1CCN(C(=O)c2cccc(CSc3nc(C)cc(N4CCN(c5ccccc5Cl)CC4)n3)c2)CC1
→ 10	6
- COc1ccccc1C=CC(=O)N1CCN(S(=O)(=O)c2ccc3c(c2)OCCCO3)CC1
→ 10	9
- Cc1nn(-c2ccccc2)c(Cl)c1CN1CCc2c(ncn2C)C1
→ 11	12
- CCc1nc2ccccc2n1CC(O)COc1cc(C)ccc1C (centres undefined)
→ 1	1
- CC(=O)NC1CCCN(c2c(Cl)cccc2C#N)C1 (centres undefined)
→ -7	-7
- COc1ccc(C(=O)N(Cc2ccccc2)c2ccccn2)cc1[N+](=O)[O-]
→ -1	-3
- COC(=O)c1ccc(NC(=O)Cc2csc(-n3cccc3)n2)cc1
→ -2	-1
- Cc1cc(C)n(-c2ccc(N3CCN(S(=O)(=O)c4cc(C(C)C)ccc4C)CC3)nn2)n1
→ -1	-6
- Cc1ccc(S(=O)(=O)N=C(Nc2ccc(C)c(C)c2)Nc2nc(C)cc(C)n2)cc1
→ -4	-8
- Cc1cccc(Cn2c(C3CCCN(C)C3)n[nH]c2=O)c1 (centres undefined)
→ 6	5
- CC1CC(=O)Nc2ccccc2N1CC(=O)Nc1cccc(S(C)(=O)=O)c1 (centres undefined)
→ 13	10
- CC(C)[C@@H]1C(=O)C(C(N)=O)C(=O)[C@@]2(O)C(=O)C3=C(O)c4c(O)ccc(N(C)C)c4C[C@H]3C[C@@H]12 (some centres undefined)
→ 0	-4
- Cc1cccc(Cn2c(Sc3nnc(C)s3)nc3c2c(=O)[nH]c(=O)n3C)c1
→ -18	-18
- COC(=O)CCCC(=O)NCC1Cc2cc(F)cc(F)c2O1 (centres undefined)
→ 9	25
- COc1ccc(-c2onc(C)c2C(=O)NCc2ccccn2)cc1
→ -1	11
- N#Cc1ccc(S(=O)(=O)N2CCN(C(c3ccccc3)c3ccc(Cl)cc3)CC2)cc1 (centres undefined)
→ 6	2
- Cn1ncnc1CNC(=O)NC1CCc2c1ccc(Cl)c2Cl (centres undefined)
→ 3	-9
- Cc1nc(SCc2ccc(C(=O)NCCN(C)C)cc2)nc(N(C)C)c1C
→ -2	3
- CCOC(=O)c1c(NC(=O)CCC2CCCCC2)sc(C)c1C
→ -3	-6
- Cc1ccc(CNCCc2cccs2)s1
→ -1	-3
- COc1ccc(-c2n[nH]c(=S)n2-c2ccccc2C)cc1
→ 3	12
- CC(/C=C/c1ccccc1)=N\OC(=O)C1CC1c1ccccc1 (centres undefined)
→ -12	-21
- CC(C)(C)n1nc2c(c1NC(=O)c1cccc3ccccc13)CSC2
→ -1	-2
- NC(=O)c1cccnc1N1CCN(Cc2cc3n(n2)CCNC3)CC1
→ 8	3
- CC(C)(C)c1ccc(C(=O)N2CCN(c3ccc([N+](=O)[O-])cc3)CC2)cc1
→ 5	2
- CO[C@@H]1C[C@@H]2CC(C)(C)OC[C@@]2(O)[C@H]1N1CCC(N2CCCCC2)CC1
→ 1	7
- Nc1cc2c(cc1Cl)OCCO2
→ -2	2
- Cc1nc(CN2CCN(S(=O)(=O)CC3CCOC3)CC2)cs1 (centres undefined)
→ 1	-15
- CCc1ccc(Cl)c(CC)c1NC(=O)c1nccn2ccnc12
→ 4	1

O=C1OC(/C=C/c2ccc(Cl)cc2Cl)=NC/1=C\c1ccc([N+](=O)[O-])cc1
  NPYLR7 agonist = -6 | NPYLR7 agonist max-min = -10
c1ccc(N2N=C(c3cccs3)CC2c2ccco2)cc1 (centres undefined)
  NPYLR7 agonist = 6 | NPYLR7 agonist max-min = 5
CN1CCCC2(CCN(C(=O)CCN3CCNCC3)C2)C1=O (centres undefined)
  NPYLR7 agonist = -2 | NPYLR7 agonist max-min = -7
Cc1cccn2c(=O)nc(SCc3ccc(Br)cc3)nc12
  NPYLR7 agonist = 7 | NPYLR7 agonist max-min = 3
C=CCNC(=O)NC(=O)COC(=O)CCNC(=O)c1ccco1
  NPYLR7 agonist = 1 | NPYLR7 agonist max-min = 1
CC(=O)Nc1ccccc1NC(=O)CNCc1ccc2sccc2c1
  NPYLR7 agonist = 11 | NPYLR7 agonist max-min = -5
CCC(=O)NCC1CC2c3ccccc3C1c1ccccc12 (centres undefined)
  NPYLR7 agonist = 1 | NPYLR7 agonist max-min = 7
CN(C)c1ncc(CNCc2cccnc2N2CCCCCCC2)s1
  NPYLR7 agonist = 11 | NPYLR7 agonist max-min = 5
Cc1cc(C2NC(=O)c3ccccc3N2)c(C)n1CC#N (centres undefined)
  NPYLR7 agonist = -2 | NPYLR7 agonist max-min = -1
CC(C)NC(=O)N1CCCC(c2nnc(Cc3ccccc3)s2)C1 (centres undefined)
  NPYLR7 agonist = -7 | NPYLR7 agonist max-min = -3
O=C(NCc1cccnc1)c1csc(COc2cccc(Cl)c2)n1
  NPYLR7 agonist = 2 | NPYLR7 agonist max-min = 8
CCc1sc(C(=O)NCC(=O)N(Cc2cccnc2)C2CC2)cc1C
  NPYLR7 agonist = 9 | NPYLR7 agonist max-min = 5
Cc1cccn2c(CNC(=O)c3cc(COc4cccc(F)c4)[nH]n3)cnc12
  NPYLR7 agonist = -1 | NPYLR7 agonist max-min = 1
COc1cccc(CN2CCNC(=O)C2CC(=O)NCc2ncc[nH]2)c1 (centres undefined)
  NPYLR7 agonist = 1 | NPYLR7 agonist max-min = 0
CN(CCc1ccccn1)Cc1csc2ccc(Cl)cc12
  NPYLR7 agonist = -8 | NPYLR7 agonist max-min = -14
Cc1nc(CS(=O)Cc2ccccc2C(F)(F)F)cs1 (centres undefined)
  NPYLR7 agonist = 3 | NPYLR7 agonist max-min = 2
Cc1cc(C)nc(SCc2cc(=O)c(OC(=O)c3ccccc3F)co2)n1
  NPYLR7 agonist = -13 | NPYLR7 agonist max-min = -7
O=C(COc1ccc(Cl)cc1Cl)NN1C(=O)c2cccc3c([N+](=O)[O-])ccc(c23)C1=O
  NPYLR7 agonist = 19 | NPYLR7 agonist max-min = 14

Source: PubChem BioAssay

A portion of the library. The share of hits here may be higher or lower than overall.
